MT1-MMP promoter: MT1-MMP gene expression reporter suppression – cell-based, luciferase reporter, luminescence (AID 618). MT1-MMP promoter luciferase reporter cells, luminescence. calls from a first round at 10 µM; hits with a dose series show EC50 in µM. 87,000 compounds, 0.62% hits;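 active = over half of the reporter light lost at 10 µM or EC50 under 50 µM; inactive = the rest and hits that failed the dose series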;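 note: actives suppress MT1-MMP promoter-driven transcription so potencies describe inhibitors; HT1080 fibrosarcoma cells; overnight exposure; toxic or luciferase-blocking compounds were not removed from the actives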
Hsc70: Hsc70 inhibitors, probe displacement, primary screen, biochemical, fluorescence polarization (AID 568) | 83,000 tested, under 10 active | Hsc70 fluorescence polarization, probe displacement; higher % means a stronger effect; strong numbers were not always called active | displacement, % at 20 µM; hits with a dose series show IC50 in µM;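 active = displacement above 50% without optical interference and an IC50 on retest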;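 note: ATPase domain with a fluorescein-tagged ATP probe; 0% = vehicle and 100% = excess ADP; read after one hour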
WNV NS2B-NS3 inh: inhibitors of West Nile virus NS2B-NS3 protease; WNV NS2B-NS3 protease, fluorogenic substrate Ex360/Em465; stronger effect = lower value; z-score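 (tested at a level between 10 and 100 µM)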; 65,000 compounds, 0.18% hits; AID 577;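 active = z-score at -3 or under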;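 note: score is relative to mean and spread of the compound wells of a plate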
Target sequence (P06935 1371-1501 limits assumed): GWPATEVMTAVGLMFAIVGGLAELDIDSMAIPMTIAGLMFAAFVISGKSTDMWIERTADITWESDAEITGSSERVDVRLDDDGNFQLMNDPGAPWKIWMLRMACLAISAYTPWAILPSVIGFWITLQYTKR
Target sequence (P06935 1502-1679 limits assumed): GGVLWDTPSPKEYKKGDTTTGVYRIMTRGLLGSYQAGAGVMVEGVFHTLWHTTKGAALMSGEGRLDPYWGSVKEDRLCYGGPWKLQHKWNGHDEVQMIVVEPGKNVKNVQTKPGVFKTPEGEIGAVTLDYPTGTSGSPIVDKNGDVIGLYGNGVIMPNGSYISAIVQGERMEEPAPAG
* hit, by the source's call; i = inactive; nt = not tested or not shown; + = active, no number. Random draw from the library; about 0.77% have a hit in one of these screens.

Molecule	MT1-MMP promoter	Hsc70	WNV NS2B-NS3 inh
c1ccc(C2=Nc3ccccc3OC2)cc1	i	-6.1%	nt
O=C(NC1CCCCCC1)C1CCN(C(=O)Cc2ccccc2)CC1	i	-3.3%	-0.3
COc1ccc(-c2csc(N(CC3CCCO3)C(=O)c3cccs3)n2)cc1 (stereo unspecified)	i	-1.6%	-0.3
Cc1nn(C)c(C)c1S(=O)(=O)N1CCCC(C(=O)NCC2COc3ccccc3O2)C1 (stereo unspecified)	i	1.0%	-0.19
Cc1ccc(S(=O)(=O)Nc2ccc3nc(C)sc3c2)cc1	i	-3.7%	nt
CC(C)COC(=O)NCCOC(=O)Nc1cccc(Cl)c1	i	-1.2%	0.93
O=C(OCC(=O)N1c2ccccc2Sc2ccccc21)C1CC(=O)N(Cc2ccco2)C1 (stereo unspecified)	i	0.9%	-0.24
CCN(CC)C(=O)C1CC(c2ccc(OC)cc2)=NO1 (stereo unspecified)	i	-8.7%	-0.34
COc1ccc(-c2nc3nc(C)cc(C)n3n2)cc1	i	10%	0.0068
N#CC1=C(Nc2ccc(Br)cc2)CCC1	i	-3.9%	-0.19
COCCCNC(=O)CC(NS(=O)(=O)c1ccc(C)cc1)c1ccc(OC)cc1 (stereo unspecified)	i	1.6%	nt
CCOC(=O)C1C(=O)NC(N2CCCCC2)=NC1c1ccco1 (stereo unspecified)	i	3.3%	0.27
COc1cc(OC)cc(C(=O)Nn2c(C)nc3ccccc3c2=O)c1	i	-2.6%	0.78
COc1ccc2c(c1)c(C(=O)OCCN(C)C)c(C)n2C	i	-0.7%	-0.05
N#CCSc1nnc2sc3ccccc3n12	i	3.2%	1.3
Cc1cc(C)n(C(=O)CN2C(=O)CCC2=O)n1	i	-2.1%	-0.04
CCOC(=O)N1CCN(S(=O)(=O)c2ccc(OCC(=O)OC)c(Cl)c2)CC1	i	4.1%	nt
COc1ccc(NC(=O)CCNS(=O)(=O)c2ccc3c(c2)c(=O)n(C)c(=O)n3C)cc1	i	3.7%	-0.08
CCSc1nc(N)c(C#N)c(-c2ccccc2Cl)c1C#N	i	-5.6%	0.93
Cc1ccc(OCc2nnc(NC(=O)OCC(C)C)s2)cc1	i	7.0%	nt
N#Cc1nc(-c2cccc(Cl)c2)oc1NCc1cccnc1	i	65%	nt
COc1ccc(C2(O)CCN(Cc3nnnn3Cc3ccc(C)cc3)CC2)cc1	i	3.4%	-0.36
CC(C(=O)N1CCCCC1)N1C(=O)c2ccccc2C1=O (stereo unspecified)	i	-5.1%	0.05
CCOc1ccc(NS(=O)(=O)c2ccc3[nH]cc(C(=O)NCC4CCCO4)c(=O)c3c2)cc1 (stereo unspecified)	i	1.2%	-0.49
CC(=O)c1c(C)[nH]c(C(=O)N2c3ccccc3CC2C)c1C (stereo unspecified)	i	4.2%	0.5
COCC(=O)NC(c1ccccc1)c1ccccc1	i	-0.3%	0.24
Cc1nc2c(C(=O)NCc3ccccc3)c[nH]n2c(=O)c1Cl	i	-3.6%	-0.45
CCNC(=O)Cn1cc(C#N)c2ccccc21	i	-1.5%	nt
C=CCn1c(Cc2c[nH]c3ccccc23)nnc1SCC(=O)NCc1ccccc1	i	5.1%	nt
COc1ccc(CCNC(=O)C2CCN(S(=O)(=O)c3cc(OC)ccc3OC)CC2)cc1	i	2.8%	-0.66
Cc1cc2nc(-c3cccnc3SCC(=O)NCc3ccco3)[nH]c2cc1C	i	-6.2%	-0.73
O=c1oc(-c2cccs2)nc2ccc(Br)cc12	i	7.1%	nt
CCOc1ccc(Nc2cc(C)nc3nc(C)nn23)cc1	i	-2.2%	0.14
O=C(CN1CCC(n2nnc3cc(C(F)(F)F)ccc32)CC1)NCc1cccs1	i	1.4%	-0.33
CC1(C)CC(C)(O)P(=O)(c2ccccc2)O1 (stereo unspecified)	i	-5.0%	2.8
CC(C)C[C@H](NC(=O)NC(C)C)C(=O)O	i	4.1%	0.86
Brc1ccc(-c2noc(CCc3ccccc3)n2)cc1	i	6.0%	nt
CC1Cc2ccccc2N1C(=O)c1cnsn1 (stereo unspecified)	i	2.5%	-0.93
c1cc2c3c(cccc3c1)C(N1CCCCC1)=N2	i	12%	-0.91
COc1ccc(S(=O)(=O)N(C)CC(=O)Nc2ccccc2C(F)(F)F)cc1Cl	i	0.5%	nt
CCS(=O)(=O)N1CCN(C(=O)c2ccccc2)CC1	i	1.5%	nt
Cc1ccccc1Nc1nc(N)nc(CSc2nnnn2-c2ccccc2)n1	i	2.9%	-2
Cc1ccc2nc(N3CCN(Cc4ccc(F)cc4)C3=O)c(C)cc2c1	i	-1.1%	-1.2
CCCCc1nc2sc3c(SCC(=O)NCc4ccco4)ncnc3c2c2c1CCC2	i	-8.0%	nt
CCOC(=O)C1C2C=CC3(CN(c4ccc(Cl)c(F)c4)C(=O)C13)O2 (stereo unspecified)	i	4.4%	2
CCC(CC)C(=O)NCCc1cc2c(OC)ccc(OC)c2[nH]c1=O	i	-3.3%	0.48
Nc1ccc(C23CC4CC(CC(CO)(C4)C2)C3)cc1	i	0.5%	nt
COc1ccc(NC(=O)NCc2ccccn2)cc1OC	i	2.0%	-1.1
CCCC(=O)Nc1cccc(-c2nc3cc(C)c(C)cc3o2)c1	i	3.0%	-0.01
COc1ccccc1N1CCN(C(=O)c2ccc(S(=O)(=O)N3CCCCC3)cc2)CC1	i	3.3%	-0.22
Cc1ccc(-c2nnc3sc(-c4ccc5c(c4)OCCO5)nn23)cc1	i	8.8%	1.3
Cn1c2ccc(Cl)cc2c2nc3ccccc3nc21	i	-1.3%	-0.08
O=C1NC2=C(C(=O)CCC2)C(c2ccc3ncccc3c2)N1 (stereo unspecified)	i	0.9%	-0.96
COc1ccc(CN(Cc2cccnc2)S(=O)(=O)c2ccc(-n3cnnn3)c(C)c2)cc1OC	i	3.3%	-0.28
COc1ccccc1C(=O)N1CCN(C2CCN(Cc3ccccc3)CC2)CC1	i	-1.3%	-0.28
O=C1c2ccccc2C(Nc2ccc3c(c2)OCCO3)N1Cc1ccccc1 (stereo unspecified)	i	0.7%	-0.19
Cc1ccc(C)c(OCC(=O)Nc2nonc2NC(=O)COc2cc(C)ccc2C)c1	i	-2.9%	1.8
O=c1c2[nH]c3ccccc3c2ncn1CCCn1ccnc1	i	3.4%	0.75
CCOc1ccc(/C(=N\O)C(C)NO)cc1 (stereo unspecified)	i	1.5%	0.42
Cc1csc2nc(CSc3nc4ccccc4o3)cn12	i	6.8%	-0.13

Following part
Molecule	MT1-MMP promoter	Hsc70	WNV NS2B-NS3 inh
COC(=O)c1[nH]c2ccccc2c1NC(=O)CN1CCN(C(=O)c2ccco2)CC1	i	-4.7%	-0.96
Cc1ccc(O)c(NC(=O)C2CC(c3c(F)cccc3Cl)=NO2)c1 (stereo unspecified)	i	-6.4%	0.3
CCOC(=O)c1cnc(=O)[nH]c1C	i	-2.7%	-0.9
CC(C)CCn1c(=O)c2ccccc2n2c(CN3C(=O)NC4(CCC(C)CC4)C3=O)nnc12 (stereo unspecified)	i	1.7%	0.14
COCCN1Cc2cccc(C(=O)Nc3ccc4c(c3)OCCO4)c2C1=O	i	0.4%	0.39
Nc1nnc2c(n1)CCCC2	i	-3.8%	-0.96
CCN(CC)C(C(=O)Nc1ccc(C(C)C)cc1)c1ccc2c(c1)OCO2 (stereo unspecified)	i	2.8%	nt
CCOC(=O)c1ccc(NC(=O)CSc2nnc(Cc3cccs3)n2C)cc1	i	-2.7%	-1.1
COCC(=O)N(CCc1ccc(OC)c(OC)c1)Cc1nc2ccccc2c(=O)[nH]1	i	1.0%	-1.7
Cc1ccc(Cn2c(=O)cc(C(=O)O)c3ccccc32)cc1	i	-0.5%	-0.27
CC(C)c1ccc(NC(=O)C(c2ccc3c(c2)OCO3)N2CCC3(CC2)OCCO3)cc1 (stereo unspecified)	i	2.4%	-1.1
CCOc1cccc2cc(-c3cn4cc(C)ccc4n3)c(=O)oc12	+	-9.3%	-1.2
O=C1c2cccnc2C(=O)N1Cc1ccco1	i	4.9%	-0.61
Cc1c(C)n(C)c2ccc(C(=O)NCc3cccs3)cc12	i	2.6%	-0.22
CC(C)(CNC(=O)c1cc2ccccc2o1)N1CCOCC1	i	0.0%	-0.73
COC(=O)c1c(-c2ccco2)csc1NC(=O)C1CC=CCC1C(=O)O (stereo unspecified)	i	-18%	-0.16
CCCC(C)C(=O)Nc1ccncc1 (stereo unspecified)	i	2.6%	nt
CN(C)CCNc1nc2c(c(=O)[nH]c(=O)n2C)n1CC(O)COc1ccc(Cl)cc1 (stereo unspecified)	i	-0.1%	-1.1
O=C(CNC(=S)N(Cc1ccc(F)cc1)C1CCCCC1)NC1CC1	i	-7.2%	nt
CCOC(=O)C1CCN(S(=O)(=O)c2ccc(C(=O)OC)cc2)CC1	i	-6.8%	-5.5*
Cc1cc(C)cc(C(=O)N2CC(=O)Nc3ccccc32)c1	+	0.7%	nt
COc1ccc(Cl)c(NC(=O)Nc2c(C)n(-c3ccccc3)c(=O)n2C)c1	i	0.8%	-0.78
CCc1cc2c(=O)[nH]c(N3CCOCC3)nc2s1	i	-0.3%	nt
O=C(Nc1nc(-c2cc3ccccc3oc2=O)cs1)c1ccc(Br)o1	i	4.5%	nt
COc1ccc(CSC2=NCCN2)cc1Cl	i	6.0%	0.45
COc1ccc(C)cc1NC(=O)C1CCCN(S(=O)(=O)c2c(C)noc2/C=C/N(C)C)C1 (stereo unspecified)	i	9.7%	-0.49
CCOC(=O)c1sc(NC(=O)C2CC=CCC2C(=O)O)nc1C (stereo unspecified)	i	4.0%	-0.2
CCCOC(=O)c1cccc(NC(=O)c2cccnc2)c1	i	-1.7%	1.8
CCC(=O)N1CC(C)C(=O)Nc2ccccc21 (stereo unspecified)	i	-1.9%	0.26
CCn1nc(CC(=O)Nc2nnc(CC(=O)N3CCCC3)s2)c2ccccc2c1=O	i	2.8%	0.1
CC1CCCCC1NC(=O)CSc1nc2ccccc2c(=O)n1Cc1ccco1 (stereo unspecified)	i	-5.0%	0.24
COc1ccc(-n2c(SCC(=O)NCc3cccs3)nnc2-c2ccoc2C)cc1	i	3.6%	-0.28
COCc1nnc(NC(=O)CSCc2ccccc2)s1	i	3.5%	nt
Cn1c(=O)cc(OCC(=O)NCCCN2CCN(c3cccc(Cl)c3)CC2)c2ccccc21	i	4.3%	-0.11
O=c1cc(-c2ccncc2)oc2ccccc12	i	0.2%	0.22
CCOC(=O)C[n+]1c(C)ccc2c1CCC2	i	-7.1%	nt
CCOC(=O)c1c(NS(C)(=O)=O)sc2c1CCC(C)C2 (stereo unspecified)	i	-2.8%	-0.69
COc1ccc(C(=O)NCCCCCC(=O)O)cc1OC	i	-1.3%	0.2
CCc1ccc(NS(=O)(=O)c2cc(OC)ccc2OC)cc1	i	0.5%	-0.58
O=S(NCc1ccco1)C12CC3CC(CC(C3)C1)C2 (stereo unspecified)	i	0.5%	-0.12
CCOC(=O)c1[nH]c2c(c1C)C(=O)CC(c1ccc(F)cc1)C2 (stereo unspecified)	+	3.9%	-0.92
Cc1ccc(C2C(C#N)=C(N)Oc3n[nH]c(-c4ccccc4)c32)o1 (stereo unspecified)	i	3.1%	nt
Cc1nn(-c2ccccc2)c2[nH]c(=O)c(CNCCN3CCOCC3)cc12	i	-1.7%	1.9

Entries from the list above containing an aryl thioether with sulfur outside any ring, in the order listed:
Molecule	MT1-MMP promoter	Hsc70	WNV NS2B-NS3 inh
N#CCSc1nnc2sc3ccccc3n12	i	3.2%	1.3
CCSc1nc(N)c(C#N)c(-c2ccccc2Cl)c1C#N	i	-5.6%	0.93
C=CCn1c(Cc2c[nH]c3ccccc23)nnc1SCC(=O)NCc1ccccc1	i	5.1%	nt
Cc1cc2nc(-c3cccnc3SCC(=O)NCc3ccco3)[nH]c2cc1C	i	-6.2%	-0.73
Cc1ccccc1Nc1nc(N)nc(CSc2nnnn2-c2ccccc2)n1	i	2.9%	-2
CCCCc1nc2sc3c(SCC(=O)NCc4ccco4)ncnc3c2c2c1CCC2	i	-8.0%	nt
Cc1csc2nc(CSc3nc4ccccc4o3)cn12	i	6.8%	-0.13
CCOC(=O)c1ccc(NC(=O)CSc2nnc(Cc3cccs3)n2C)cc1	i	-2.7%	-1.1
CC1CCCCC1NC(=O)CSc1nc2ccccc2c(=O)n1Cc1ccco1 (stereo unspecified)	i	-5.0%	0.24
COc1ccc(-n2c(SCC(=O)NCc3cccs3)nnc2-c2ccoc2C)cc1	i	3.6%	-0.28

From PubChem
